High-throughput results (PubChem)
eIF4H inh: inhibitors of RNA binding by human eIF4H. inhibition, % at 35 µM. Q15056. actives 0.94% (n = 290,000). AID 2012. eIF4H fluorescence polarization binding assay;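 active = 50% or more with normal probe brightness, or confirmed in later tests; inconclusive = above 50% with abnormal brightness, or retests that disagree; inactive = below 50% or failed in later tests; about a fifth of its hits are not listed in these tables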;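 also: calls also rest on retests at 20 µM and on dose response follow-up; 0% = protein and probe with vehicle and 100% = probe without protein; strong numbers were not always called active; many hits fall short of the cut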
UUG fidelity: alters start codon recognition fidelity in yeast. S. cerevisiae UUG-firefly luciferase reporter, luminescence/redox ratio. activity score, % at 18.7 µM. actives 0.13% (n = 350,000);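 active = replicate mean at a twofold rise or more, about +100% in these data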;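 also: firefly luciferase made from a UUG start codon reports start codon fidelity; reporter light over untreated wells divided by growth signal over untreated wells; some hits fall short of that in this replicate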
MT1-MMP act inh: MT1-MMP (human) activation inhibition | P50281 | HT1080 RFP-PRO-GFP cells, GFP/RFP ratio fluorescence, overnight; percent of plate control window, DMSO zero | GFP/RFP ratio change, % at 20 µM | actives 0.061% (n = 360,000);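 active = GFP/RFP ratio change of at least 30% with cell ATP level not reduced by more than half and red fluorescence within 50% of control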; also: strong numbers were not always called active
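Assay system – RFP-PRO-GFP reporter HT1080 cells · Compound dosing – single dose of 20 µM compound, 1% DMSO final · Incubation – overnight compound exposure at 37 °C · Measure – GFP/RFP fluorescence ratio · Benchmarks – DMSO wells and RFP-L50D-GFP cells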
Rce1 inhib: inhibitors of yeast Ras-converting enzyme | Q03530 | yeast membranes, quenched prenylated peptide cleavage fluorescence | AID 2563 | calls only | actives 0.27% (n = 290,000);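 active = fall in fluorescence gain of 50% or more versus controls, with final raw signal at or below 3038400; inconclusive = same 50% fall but final raw signal above 3038400; inactive = fall in fluorescence gain under 50%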;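 also: plate controls were neutral control wells for no effect and wells lacking membranes for full effect; tested at 10 µM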
PABP polyA inh: PABP-poly(A) binding inhibition; AID 2014; PABP-poly(A) RNA binding, fluorescence polarization; P11940; actives 1% (n = 290,000); inhibition, % at 35 µM;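 active = 50% or more with normal probe brightness, or confirmed in later tests; inconclusive = above 50% with abnormal brightness, or retests that disagree; inactive = below 50% or failed in later tests; about a fifth of its hits are not listed in these tables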;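 also: calls also rest on retests at 20 µM and on dose response follow-up; controls were probe without protein and protein plus probe with vehicle; some compounds called inactive have numbers as strong as hits; many hits fall short of the cut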
Target sequence (P11940 whole entry, looked up): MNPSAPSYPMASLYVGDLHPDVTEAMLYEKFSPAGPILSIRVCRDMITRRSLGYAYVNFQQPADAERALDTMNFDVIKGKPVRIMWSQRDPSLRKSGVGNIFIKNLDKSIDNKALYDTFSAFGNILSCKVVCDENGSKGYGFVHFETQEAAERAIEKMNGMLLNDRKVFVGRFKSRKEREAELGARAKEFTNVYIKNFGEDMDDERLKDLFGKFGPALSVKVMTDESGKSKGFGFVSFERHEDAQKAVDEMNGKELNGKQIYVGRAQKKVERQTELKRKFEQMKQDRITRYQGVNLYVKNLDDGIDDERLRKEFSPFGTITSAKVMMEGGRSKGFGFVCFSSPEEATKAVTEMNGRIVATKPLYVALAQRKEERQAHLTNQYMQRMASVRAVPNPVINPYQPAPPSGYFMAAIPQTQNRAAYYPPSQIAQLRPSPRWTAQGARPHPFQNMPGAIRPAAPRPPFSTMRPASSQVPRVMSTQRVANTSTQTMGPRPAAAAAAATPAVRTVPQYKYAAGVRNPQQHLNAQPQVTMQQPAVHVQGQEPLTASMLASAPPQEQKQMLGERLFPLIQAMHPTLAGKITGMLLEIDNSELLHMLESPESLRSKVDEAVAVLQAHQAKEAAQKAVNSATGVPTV
CSC inhib: blocks cancer stem cells | inhibition, % at 7.5 µM | actives 1.1% (n = 300,000) | cancer stem cell-like cells viability, luminescence | AID 2717;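 active = mean at 75% or more and at least half the replicates too; inconclusive = mean and replicates disagree; tested in HMLE shEcad cells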;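 also: 0% = median of negative and 100% = median of positive control wells; the first replicate is given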
Env fusion inh: blocks HIV Env-driven cell-cell fusion | HeLa-JRFL Env/CEM21 cell fusion, luciferase | inhibition, % at 12.3 µM | actives 1.1% (n = 360,000) | AID 651610;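 active = mean replicate inhibition score of at least 50 and every replicate individually at or above 50; inconclusive = only one of the two criteria met; inactive = mean below 50 and not all replicates reaching 50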;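 also: 0% = plate neutral controls and 100% = maraviroc near 300 nM; one replicate is shown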
MT1-MMP act inh RFP: recorded beside MT1-MMP act inh, whose call it bears; RFP signal change, %; measured here: RFP expression control read;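 0 = vehicle wells; hits needed this value within 50% of zero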
Active calls of the source: *; i = inactive; u = inconclusive; x = no result given. This is a subset (hit frequency here may not be typical).

Compound,eIF4H inh,UUG fidelity,MT1-MMP act inh,MT1-MMP act inh RFP,Rce1 inhib,PABP polyA inh,CSC inhib,Env fusion inh
COc1ccc(C(CNC(=O)Cc2ccc(Cl)c(Cl)c2)N2CCCCC2)cc1 (centres undefined),-9,0,-2,1,i,10,1,5
COC1CC(OC2CCC3(C)C(CCC4C3CCC3(C)C(C5=CC(=O)OC5)C(OC(C)=O)CC43O)C2)OC(C)C1OC1OC(COC2OC(CO)C(O)C(O)C2O)C(O)C(O)C1O (centres undefined),-9,x,x,x,i,-3,79*,x
Cn1cc(C(=O)OCC(=O)Nc2ccccc2Cl)c2ccccc21,x,-8,3,-2,x,x,x,-11
COC(=O)C1=C(c2ccc(F)cc2OCc2ccccc2)C[C@@H]2CC[C@H]1N2C(=O)NCCCc1ccccc1,x,-14,-9,-11,x,x,18,13
CCCCCn1c(=O)c(C(=O)Nc2ccccc2N)c(O)c2ccccc21,17,-25,-1,-16,i,4,15,8
COC(=O)C1=C(c2ccc(-c3ccccc3)c(F)c2)C[C@@H]2CC[C@H]1N2C(=O)NCCOc1ccccc1,x,-28,-1,-12,x,x,37,-19
CCN(CC)N=O,x,-10,-1,4,x,x,-14,x
Cc1cccc(-n2c(-c3ccco3)nc3ccccc3c2=O)n1,4,4,1,1,i,-4,-11,x
CC(C)N1CCN(Cc2ccc3c(c2)OCCO3)CC1CCO (centres undefined),-4,10,1,1,i,-9,-15,1
Cc1ccccc1N1C(=O)NC(=O)/C(=C\c2cc(Br)c(N3CCOCC3)o2)C1=O,u,x,-123,11,i,-5,3,-30
CCCCOCCCn1c(N)c(C(=O)OC(C)COC)c2nc3ccccc3nc21 (centres undefined),-3,-2,-7,-1,i,-2,-4,-3
COC(=O)C(O)(c1ccc(N=Cc2ccccc2O)c(C)c1)C(F)(F)F (centres undefined),-4,-17,1,3,i,-2,3,-5
CSCCC(c1nnnn1-c1ccc2c(c1)OCCO2)N1CCC2(CC1)C(=O)NCN2c1ccccc1 (centres undefined),x,-4,-1,-2,x,x,x,-31
c1ccc(CN2CCNCC2)nc1,2,-9,0,0,i,19,8,-19
CCOC(=O)N(c1ccccc1)P1(=S)OCC(C)O1 (centres undefined),-6,-13,6,2,i,-2,-6,-131
CC(=NCC1CCCO1)c1c(O)n(C2CCCCC2)c(=O)[nH]c1=O (centres undefined),-3,5,2,-1,i,-2,-5,-12
CCCCCCN1CCN(c2ccccc2Cl)CC1,11,50,2,3,i,-11,36,20
Cn1c(O)c(C=NCCOc2ccc(Cl)cc2)c(=O)n(C)c1=O,2,-13,-4,-4,i,2,-9,-19
CCOc1cc(/C=C2/C(=O)NC(=O)N(c3ccc(CC)cc3)C2=O)ccc1OC(=O)c1cccs1,5,-15,-10,3,i,-5,-13,x
Cc1cc(OCC(=O)N[C@@H](Cc2ccccc2)C(=O)O)c2c3c(c(=O)oc2c1)CCC3,-7,3,5,6,i,0,1,x
O=C1NC(=O)C(=CN2CCc3ccccc32)C(=O)N1,39,x,-3,7,i,15,-20,-75
CCCCn1c(=O)c(C(=O)NCc2ccccc2)c(O)c2ccccc21,-5,-21,-1,-8,i,-5,u,27
Nc1c(Cl)cc([N+](=O)[O-])cc1Cl,x,-6,-10,-5,i,x,-6,-2
CCOC(=O)c1[nH]c(C)c(C(=O)N2CCC3(CC2)OCCO3)c1C,-2,-15,0,1,i,-6,-13,-15
O=P1(c2ccccc2)CC=CC1,x,-15,3,2,x,x,x,-22
S=C(c1ccc(Cl)cc1)N1CCOCC1,-14,-13,3,4,i,2,0,-32
Oc1ccc(/C=N/NP(=S)(c2ccccc2)c2ccccc2)cc1,0,-38,-2,-3,i,7,-4,-47
C#CCOCOCC#CCN(CC)CC,6,-8,1,1,i,-5,-7,x
CCN(CC)c1ccc(N=Cc2c(O)n(-c3ccccc3)c(=O)[nH]c2=O)cc1,-10,x,-12,4,i,3,10,0
CC(OC(=O)c1cn(C)c2ccccc12)C(=O)N(C)c1ccccc1 (centres undefined),x,0,3,2,x,x,x,-27
Cc1ccc(NS(=O)(=O)c2ccc(OCC(=O)N3CCN(C)CC3)cc2)cc1,-1,-18,-2,-3,i,-4,24,4
COC(=O)C1=C(c2ccc(Cl)c(C(F)(F)F)c2)C[C@@H]2CC[C@H]1N2C(=O)NC1CCCCC1,x,-12,-4,-11,x,x,28,29
CCc1nc2ccc(N3CCN(C)CC3)cc2nc1CC,20,-16,1,1,i,-1,-1,6
Cc1cccc(NP(=O)(Oc2ccccc2F)Oc2ccccc2F)c1,-2,-12,-11,-10,i,2,39,x
Clc1ccc2c(c1)C(OC1CN3CCC1CC3)c1ccccc1CS2 (centres undefined),-8,-10,-17,-15,i,-14,12,x
COc1ccc(OCC(=O)N2CCN(Cc3ccc(SC)cc3)CC2)cc1,9,-15,0,-2,i,5,26,22

Part of the list above, with two lines to a compound:
Values run as follows: eIF4H inh | UUG fidelity | MT1-MMP act inh | MT1-MMP act inh RFP | Rce1 inhib | PABP polyA inh | CSC inhib | Env fusion inh
Clc1ccc2c(c1)C(OC1CN3CCC1CC3)c1ccccc1CS2 (centres undefined)
    -8 | -10 | -17 | -15 | i | -14 | 12 | x
S=C(c1ccc(Cl)cc1)N1CCOCC1
    -14 | -13 | 3 | 4 | i | 2 | 0 | -32

Other results:
Compound,eIF4H inh,UUG fidelity,MT1-MMP act inh,MT1-MMP act inh RFP,Rce1 inhib,PABP polyA inh,CSC inhib,Env fusion inh
CN(C)CP(=O)(O)CN(C)C=O,-6,-14,0,2,x,1,-6,x
c1cncc(CNC2CCCCC2)c1,-4,-1,-7,1,i,-2,-3,10
CN1CCC(N(C)c2nc(-c3ccc([N+](=O)[O-])cc3)nc3ccccc23)CC1,-6,x,-21,-20,i,-2,x,x
CN1[C@H]2CC[C@@H]1C(C(=O)N1CCOCC1)=C(O)C2,x,-15,3,2,x,x,2,0
Cc1cccc(CCNCc2cc3cc(C)cc(C)c3[nH]c2=O)c1,33,-12,-7,2,i,14,7,-46
O=c1c2ccccc2[nH]c(=S)n1-c1cccnc1,-6,x,x,x,i,13,-7,3
CC(C)C12CN3CCN(CC(C3)/C1=N\O)C2,-11,-20,-3,0,i,-1,-15,x
O=[N+]([O-])c1ccc(N2CCCNCC2)c2ncccc12,1,x,1,0,i,-3,x,7
COc1ccc2c(c1)CC1(CN2C)C(=O)NC(=O)N(CCc2ccccc2)C1=O (centres undefined),1,-15,0,3,i,13,x,-12
Cc1oc(-c2ccccc2F)nc1CS(=O)CC(=O)N1CCC2(CC1)OCCO2 (centres undefined),-6,2,-9,-10,i,0,-4,6
O=C(c1cc(S(=O)(=O)N2CCOCC2)ccc1F)N1CCC2(CC1)OCCO2,0,-4,2,1,i,11,20,-57
NS(=O)(=O)c1ccc(N=Nc2c(O)[nH]c(=S)[nH]c2=O)cc1,2,0,4,2,i,4,-12,13
COc1ccc(N2C(=O)NC(=O)/C(=C/c3ccc([N+](=O)[O-])s3)C2=O)cc1,45,-5,-16,56,i,32,-14,-6
O=C(COC(=O)Cc1ccccc1)Nc1ccc(F)cc1,12,-18,3,3,i,-10,-7,-3
C=CCN(CC=C)C(=O)Nc1ccc(OCC)cc1,37,x,1,0,i,-5,-15,-1
CC(/C=C(\C)Nc1ccccc1)=Nc1ccccc1,5,-10,-1,3,i,25,-13,-16
CC(C)(C)NC(=S)N1CCn2cccc2C1c1cccnc1 (centres undefined),7,x,3,6,i,-6,x,-4
Cc1cc(NC(=O)COC(=O)c2c(C)nn(Cc3ccccc3)c2C)no1,17,-18,2,6,i,-6,25,x
Cc1ccc2c(c1)N(CCC(=O)N1CCC3(CC1)OCCO3)C(=O)CO2,-2,-15,5,1,i,3,1,-6
O=C(Nc1nc(-c2ccccc2)c(-c2ccccc2)s1)c1ccc(S(=O)(=O)N(CCCl)CCCl)cc1,-4,10,-4,-11,i,8,10,24
O=S(=O)(c1ccc(Cl)cc1)N1CC1c1ccccc1 (centres undefined),-9,x,1,4,i,4,-8,-9
CCOc1ccc(Cl)cc1CNCCc1ccccc1F,1,x,-7,1,i,0,0,0
CCC(=O)c1cn(Cc2ccccc2C#N)c2ccccc12,3,-3,-3,-4,i,4,5,14
COC(=O)C1=C(c2cccc(OC)c2OC)C[C@@H]2CC[C@H]1N2C(=O)NCCS(C)=O (some centres undefined),x,-9,0,1,i,x,6,9
CN1CCC(=O)N(CCN=[N+]=[N-])CC1,-12,5,4,4,i,-11,2,-1
O=[N+]([O-])c1cc(Cl)c(O)c(-[n+]2c(-c3ccccc3)cc(-c3ccccc3)cc2-c2ccccc2)c1,2,-1,-3,-9,i,12,-3,-41

By substructure, the entries above with a Cl atom.
Compound,eIF4H inh,UUG fidelity,MT1-MMP act inh,MT1-MMP act inh RFP,Rce1 inhib,PABP polyA inh,CSC inhib,Env fusion inh
COc1ccc(C(CNC(=O)Cc2ccc(Cl)c(Cl)c2)N2CCCCC2)cc1 (centres undefined),-9,0,-2,1,i,10,1,5
Cn1cc(C(=O)OCC(=O)Nc2ccccc2Cl)c2ccccc21,x,-8,3,-2,x,x,x,-11
CCCCCCN1CCN(c2ccccc2Cl)CC1,11,50,2,3,i,-11,36,20
Cn1c(O)c(C=NCCOc2ccc(Cl)cc2)c(=O)n(C)c1=O,2,-13,-4,-4,i,2,-9,-19
Nc1c(Cl)cc([N+](=O)[O-])cc1Cl,x,-6,-10,-5,i,x,-6,-2
S=C(c1ccc(Cl)cc1)N1CCOCC1,-14,-13,3,4,i,2,0,-32
COC(=O)C1=C(c2ccc(Cl)c(C(F)(F)F)c2)C[C@@H]2CC[C@H]1N2C(=O)NC1CCCCC1,x,-12,-4,-11,x,x,28,29
Clc1ccc2c(c1)C(OC1CN3CCC1CC3)c1ccccc1CS2 (centres undefined),-8,-10,-17,-15,i,-14,12,x
O=C(Nc1nc(-c2ccccc2)c(-c2ccccc2)s1)c1ccc(S(=O)(=O)N(CCCl)CCCl)cc1,-4,10,-4,-11,i,8,10,24
O=S(=O)(c1ccc(Cl)cc1)N1CC1c1ccccc1 (centres undefined),-9,x,1,4,i,4,-8,-9
CCOc1ccc(Cl)cc1CNCCc1ccccc1F,1,x,-7,1,i,0,0,0
O=[N+]([O-])c1cc(Cl)c(O)c(-[n+]2c(-c3ccccc3)cc(-c3ccccc3)cc2-c2ccccc2)c1,2,-1,-3,-9,i,12,-3,-41
